Bioassay records from PubChem.
MLL AF4-AF9 inh: inhibitors of AF4 peptide binding to AF9, primary screen, biochemical, AlphaScreen, biotin-AF4 peptide, FLAG-AF9, single point; inhibition, % at 10 µM; AID 651704, 2012; actives 0.47% (n = 350,000);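 active = every replicate reaching a set inhibition limit, whatever the replicate mean, cut at about 25% in these data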;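 note: 0% = plate neutral control median and 100% = total signal loss; the record names both 10 and 1 µM as test concentration; the first replicate is given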
Target sequence (P42568 whole entry, looked up): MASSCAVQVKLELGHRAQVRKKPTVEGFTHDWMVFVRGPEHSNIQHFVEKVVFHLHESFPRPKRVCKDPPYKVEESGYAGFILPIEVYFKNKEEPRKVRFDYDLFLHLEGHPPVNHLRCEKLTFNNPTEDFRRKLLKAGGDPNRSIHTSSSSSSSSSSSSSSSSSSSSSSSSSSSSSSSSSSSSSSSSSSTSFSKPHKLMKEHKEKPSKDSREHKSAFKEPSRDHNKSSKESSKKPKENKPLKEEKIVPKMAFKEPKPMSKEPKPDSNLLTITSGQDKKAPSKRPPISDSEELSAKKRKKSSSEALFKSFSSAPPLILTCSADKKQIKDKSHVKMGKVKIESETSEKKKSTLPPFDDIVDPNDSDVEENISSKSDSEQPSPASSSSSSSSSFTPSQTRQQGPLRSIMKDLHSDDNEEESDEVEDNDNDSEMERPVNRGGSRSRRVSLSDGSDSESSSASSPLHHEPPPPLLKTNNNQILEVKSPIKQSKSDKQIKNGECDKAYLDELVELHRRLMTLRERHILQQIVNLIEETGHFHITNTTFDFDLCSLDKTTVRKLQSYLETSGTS
* = called active by the depositor; & = joins results of further samples. An excerpt (hit frequency here may not be typical).

Molecule	MLL AF4-AF9 inh
C[C@H](CO)N1C[C@H](C)[C@H](CN(C)C(=O)NC2CCCCC2)Oc2ncc(-c3ccc(F)cc3)cc2C1=O	-2.1
O=C(C1CCC1)N1CCCCN2[C@@H](CO)[C@@H](c3ccc(-c4ccncc4)cc3)[C@@H]2C1	-0.4
C[C@H](NC(=O)C[C@@H]1C=C[C@H](NC(=O)CN2CCOCC2)[C@@H](CO)O1)c1ccccc1	-0.6
CCCNC(=O)Nc1ccc2c(c1)OC[C@H](C)NC[C@H](C)[C@H](OC)CN(C)C2=O	-1.9
COc1ccc(S(=O)(=O)Nc2ccc3c(c2)CC(=O)N([C@@H](C)CO)C[C@H](C)[C@@H](CN(C)C(=O)Nc2c(C)noc2C)O3)cc1	-2.5
CCCNC(=O)C1(C)CCN(CCOc2ccc(Cl)cc2)C1 (centres undefined)	2.1
CS(=O)(=O)Nc1ccc2c(c1)[C@@H]1C[C@H](CC(=O)NCCc3ccccc3)O[C@H](CO)[C@@H]1O2	0.3
C[C@@H]1CN([C@@H](C)CO)C(=O)c2cc(C3=CCCC3)cnc2O[C@@H]1CN(C)C(=O)c1ccncc1	-4.5
COc1ccc(S(=O)(=O)N(C)C[C@@H]2OCCCC[C@H](C)Oc3ccc(NS(=O)(=O)c4ccccc4)cc3C(=O)N([C@@H](C)CO)C[C@@H]2C)cc1	0.2
COc1cccc(S(=O)(=O)Nc2ccc3c(c2)[C@H]2C[C@H](CC(=O)NCc4ccc(Cl)cc4)O[C@@H](CO)[C@H]2O3)c1	1.5
C[C@@H]1CN([C@@H](C)CO)C(=O)c2cc(C#Cc3ccccn3)cnc2O[C@@H]1CN(C)C(=O)c1ccccn1	-5.8
OCC1OC(c2ccc(O)cc2O)C(O)C1O (centres undefined)	-3.5
C[C@H](CO)N1C[C@H](C)[C@@H](CN(C)C(=O)Cc2ccncc2)Oc2cc(C3=CCCCC3)ccc2S1(=O)=O	3.5
C[C@@H]1CN([C@H](C)CO)C(=O)c2cccc(NC(=O)Nc3cccc4ccccc34)c2O[C@H]1CN(C)S(=O)(=O)c1cccs1	1.7
O=C(CN1CCOCC1)N1CC2(C1)[C@@H](c1ccccc1)[C@@H](CO)N2Cc1cccc(F)c1	-13.4
CC1(c2cccc(Br)c2)NC(=O)N(CC(=O)c2ccc3c(c2)OCO3)C1=O (centres undefined)	-5.3
O=C(C[C@H]1CC[C@@H](NC(=O)Nc2cccc(F)c2)[C@H](CO)O1)NCC1CCCCC1	0.1
O=C1CN(S(=O)(=O)c2cccc(F)c2)C[C@@H]2[C@H](c3ccc(-c4ccc(F)cc4)cc3)[C@H](CO)N12	-0.8
CNC[C@@H]1Oc2c(NC(=O)c3ccc(-c4nccs4)cc3)cccc2C(=O)N([C@@H](C)CO)C[C@@H]1C	-2.4
Cc1noc(C)c1S(=O)(=O)Nc1ccc2c(c1)CC(=O)N([C@H](C)CO)C[C@@H](C)[C@H](CN(C)C(=O)Nc1ccc(F)cc1)O2	-1.5

Molecule	MLL AF4-AF9 inh
C[C@@H]1CN([C@@H](C)CO)S(=O)(=O)c2ccc(C#CC3(O)CCCC3)cc2O[C@@H]1CN(C)C(=O)Cc1cccnc1	-1.3
O=C(NC1CCCCC1)N[C@H]1CC[C@H](CC(=O)N2CCOCC2)O[C@H]1CO	-1.0
CCOC(=O)C1CC(=NO)c2ccc(OC)c(OC)c2C1 (centres undefined)	1.8
C[C@H]1CN([C@@H](C)CO)C(=O)c2ccccc2-c2ccccc2CO[C@@H]1CN(C)C(=O)Nc1ccccc1	-5.7
C[C@@H]1CN([C@@H](C)CO)C(=O)c2cccc(NC(=O)c3ccncc3)c2O[C@H]1CN(C)S(=O)(=O)c1ccccc1	-1.7
C[C@@H]1CN([C@@H](C)CO)C(=O)c2cccc(NC(=O)Nc3ccc4c(c3)OCO4)c2O[C@H]1CN(C)C(=O)Nc1ccc(C(F)(F)F)cc1	-2.1
C/C=C/c1cnc2c(c1)C(=O)N([C@H](C)CO)C[C@@H](C)[C@H](CN(C)C(=O)NC1CCCCC1)O2	-4.0
Cc1ccc(S(=O)(=O)N(C)C[C@H]2Oc3ccc(NS(=O)(=O)c4ccccc4)cc3CC(=O)N([C@@H](C)CO)C[C@H]2C)cc1	-6.3
CCOc1ccc(CCN2C(=O)C(=O)N([C@@H](Cc3ccc(O)cc3)CN3CCC[C@H]3CN3C(=O)C(=O)NC[C@@H]3Cc3ccc(O)cc3)C[C@@H]2Cc2ccc(O)cc2)cc1	0.1
O=C(c1ccc2c(c1)OCO2)N1C[C@@H]2[C@H](c3ccccc31)[C@@H](CO)N2Cc1ccccc1Cl	2.3
CCCc1cn(CC[C@@H]2CC[C@@H](NC(=O)C3CC3)[C@@H](CO)O2)nn1	-3.4
CC(C)NC(=O)Nc1ccc2c(c1)C(=O)N([C@H](C)CO)C[C@@H](C)[C@H](CN(C)C(=O)c1ccccc1)OCCCC[C@H](C)O2	-2.7
CN1CCN(C(=O)C[C@@H]2CC[C@H]3[C@@H](COC[C@@H](O)CN3C(=O)c3ccc(F)cc3)O2)CC1	-2.3
Cc1ccc(NC(=O)Nc2ccc3c(c2)C(=O)N(C)[C@@H]2CC[C@@H](CC(=O)NCC(F)(F)F)O[C@H]2CO3)cc1	7.2
O=C(C[C@@H]1CC[C@@H]2[C@H](COC[C@@H](O)CN2C(=O)c2ccncc2)O1)NC1CCC1	-2.5
O=C(N[C@@H]1CC[C@H](CCn2cc(-c3ccccn3)nn2)O[C@H]1CO)c1cccnc1	0.4
Nn1cnc2c(ncn2C2OC(CO)C(O)C2O)c1=O (centres undefined)	-0.8
O=C(C[C@H]1C=C[C@@H](NC(=O)C2CCC2)[C@H](CO)O1)NC1CCC1	-3.4
COc1cccc(CN2CCC(C(=O)NC(c3ccc4c(c3)OCO4)c3ccccn3)CC2)c1 (centres undefined)	-9.0
CCCNC(=O)C[C@H]1CC[C@@H]2[C@@H](COc3ccc(NC(=O)c4ccc(C(F)(F)F)cc4)cc3C(=O)N2C)O1	-0.3

| molecule | MLL AF4-AF9 inh |
| --- | --- |
| C[C@H](CO)N1C[C@H](C)[C@@H](CN(C)C(=O)C2CCCCC2)OCCCC[C@H](C)Oc2ccc(NS(=O)(=O)c3ccc(F)cc3)cc2C1=O | 2.6 |
| O=C(Nc1cc(F)ccc1F)N1CC(=O)N2[C@H](C1)[C@@H](c1ccc(C#CC3CCCCC3)cc1)[C@@H]2CO | 3.6 |
| C[C@@H]1CCCCO[C@H](CN(C)C(=O)Nc2cccc3ccccc23)[C@H](C)CN([C@@H](C)CO)C(=O)c2cc(NS(C)(=O)=O)ccc2O1 | 1.8 |
| O=C(Nc1ccccc1)N1CC(=O)N2[C@H](C1)[C@H](c1ccc(C#CC3CCCCC3)cc1)[C@@H]2CO | 1.3 |
| O=C(C1CCOCC1)N1CC(=O)N2[C@H](C1)[C@H](c1ccc(-c3ccccc3F)cc1)[C@@H]2CO | 0.4 |
| CC(C)CC#Cc1ccc([C@@H]2[C@@H](CO)N3C(=O)CN(C(=O)NC4CCCC4)C[C@H]23)cc1 | 2.2 |
| O=C(N[C@H]1CC[C@H](CC(=O)N2CCCCC2)O[C@H]1CO)c1cccc(F)c1 | -0.9 |
| CCCNC(=O)Nc1ccc2c(c1)OC[C@H](C)N(C(=O)C1CCC1)C[C@H](C)[C@H](OC)CN(C)C2=O | -1.9 |
| COc1ccccc1S(=O)(=O)N1CC[C@@H]2[C@@H](CO)N(C)c3ccc(-c4ccc(F)cc4)cc3[C@@H]21 | 8.9 |
| C[C@@H]1CN([C@H](C)CO)C(=O)Cc2cc(NC(=O)Nc3ccccc3)ccc2O[C@@H]1CN(C)Cc1ccccc1 | 4.2 |
| CN(C)C(=O)C[C@H]1C=C[C@@H](NC(=O)c2ccc(F)cc2)[C@H](CO)O1 | 0.7 |
| COCC(=O)N1[C@@H]2c3ccc(-c4ccc(F)cc4)c(=O)n3C[C@@H]2[C@@H](CO)[C@@H]1C(=O)Nc1ccccc1 | 1.9 |
| C[C@@H]1CN([C@H](C)CO)S(=O)(=O)c2ccc(C#C[C@@H](C)O)cc2O[C@@H]1CN(C)C(=O)C1CCC1 | -11.9 |
| CC(C)NC(=O)Nc1ccc2c(c1)C(=O)N([C@H](C)CO)C[C@@H](C)[C@H](CN(C)S(=O)(=O)c1ccc(Cl)cc1)OCCCC[C@H](C)O2 | 2.1 |
| C[C@H](CO)N1C[C@H](C)[C@@H](CN(C)Cc2cncnc2)Oc2cc(-c3ccccc3F)ccc2S1(=O)=O | 3.4 |

| molecule | MLL AF4-AF9 inh |
| --- | --- |
| CCOC(=O)N(C)c1c(CC)nc2c(OCc3ccccc3C)cccn12 | -0.3 |
| CO[C@@H]1CN(C)C(=O)c2cc(NC(=O)c3cccc(F)c3)ccc2OC[C@@H](C)N(C)C[C@@H]1C | -9.2 |
| CCCC#Cc1ccc([C@@H]2[C@H]3CN(C(=O)Nc4ccccc4F)CC(=O)N3[C@H]2CO)cc1 | 2.8 |
| C[C@H](CO)N1C[C@H](C)[C@H](CN(C)S(C)(=O)=O)Oc2ncc(-c3cccc(F)c3)cc2C1=O | -0.3&-6.2 |
| O=C(C1CCC1)N1C[C@H]2[C@@H](c3ccccc31)[C@H](CO)N2S(=O)(=O)c1ccccc1 | -0.7 |
| COc1ccc(NC(=O)C2(C)CCN2Cc2ccccc2Cl)cc1OC (centres undefined) | 5.2 |
| O=C(NC1CCCCC1)N1CC2(C1)[C@H](c1ccccc1)[C@H](CO)N2S(=O)(=O)Cc1ccccc1 | 1.1 |
| O=S(=O)(c1ccccc1)n1cc(-c2cccc3nccn23)c2ccccc21 | 8.4 |
| C[C@@H]1CCCCO[C@H](CN(C)C(=O)Cc2ccccc2)[C@H](C)CN([C@@H](C)CO)C(=O)c2cc(NS(=O)(=O)c3cccs3)ccc2O1 | -0.7 |
| O=C(Nc1ccc2c(c1)OCCO2)C1c2ccccc2OCC(=O)N1CC(F)(F)F (centres undefined) | -0.7 |
| CCN(CC)C(=O)c1cccc(-c2csc(C(C)(O)c3ccccc3)n2)c1 (centres undefined) | -1.2 |
| COc1ccc(NC(=O)N(C)C[C@@H]2Oc3cc(-c4cccc(C(=O)N(C)C)c4)ccc3S(=O)(=O)N([C@@H](C)CO)C[C@H]2C)cc1 | -0.1 |
| COC(=O)c1cc2c(c3c4cc(F)ccc4n(S(=O)(=O)c4ccc(C)cc4)c13)C(=O)N(Cc1ccccc1OC)C2 | 2.2 |
| C[C@H]1CN([C@@H](C)CO)C(=O)c2cc(NC(=O)C3CCCCC3)ccc2O[C@H]1CN(C)S(=O)(=O)c1ccc(F)cc1 | -3.0 |
| COCC(=O)N1CC(=O)N2[C@H](C1)[C@@H](c1ccc(C#CC3CC3)cc1)[C@@H]2CO | -1.7 |

4 entries from above, field by field:
COc1ccc(NC(=O)C2(C)CCN2Cc2ccccc2Cl)cc1OC (centres undefined)
  MLL AF4-AF9 inh: 5.2

O=C(NC1CCCCC1)N1CC2(C1)[C@H](c1ccccc1)[C@H](CO)N2S(=O)(=O)Cc1ccccc1
  MLL AF4-AF9 inh: 1.1

O=C(Nc1ccc2c(c1)OCCO2)C1c2ccccc2OCC(=O)N1CC(F)(F)F (centres undefined)
  MLL AF4-AF9 inh: -0.7

C[C@H]1CN([C@@H](C)CO)C(=O)c2cc(NC(=O)C3CCCCC3)ccc2O[C@H]1CN(C)S(=O)(=O)c1ccc(F)cc1
  MLL AF4-AF9 inh: -3.0

For reference, three of the compounds above.
| molecule | MLL AF4-AF9 inh |
| --- | --- |
| COC(=O)c1cc2c(c3c4cc(F)ccc4n(S(=O)(=O)c4ccc(C)cc4)c13)C(=O)N(Cc1ccccc1OC)C2 | 2.2 |
| C[C@H]1CN([C@@H](C)CO)C(=O)c2cc(NC(=O)C3CCCCC3)ccc2O[C@H]1CN(C)S(=O)(=O)c1ccc(F)cc1 | -3.0 |
| COCC(=O)N1CC(=O)N2[C@H](C1)[C@@H](c1ccc(C#CC3CC3)cc1)[C@@H]2CO | -1.7 |

The list goes on:
| molecule | MLL AF4-AF9 inh |
| --- | --- |
| C[C@@H]1CN([C@@H](C)CO)C(=O)c2cc(NS(=O)(=O)c3ccccc3)ccc2O[C@@H](C)CCCCO[C@H]1CN(C)C(=O)CCC(F)(F)F | -2.5 |
| COCC(=O)Nc1ccc2c(c1)OC[C@H](C)N(Cc1ccccc1F)C[C@H](C)[C@@H](OC)CN(C)C2=O | 3.3 |
| C[C@H]1CN([C@@H](C)CO)S(=O)(=O)c2ccc(C#CC3(O)CCCC3)cc2O[C@@H]1CN(C)C(=O)c1ccncc1 | -2.6 |
| COCC(=O)N1C[C@H](C)[C@H](OC)CN(C)C(=O)c2cc(NC(=O)c3ccccc3)ccc2OC[C@H]1C | -7.9 |
| Cc1cc2nc(-c3ccc(Cl)cc3)c(Cc3cccc(Cl)c3)n2c(C)c1Br | -1.4 |
| COc1ccc(S(=O)(=O)Nc2ccc3c(c2)C(=O)N([C@@H](C)CO)C[C@@H](C)[C@@H](CN(C)C(=O)Nc2c(C)noc2C)OCCCC[C@@H](C)O3)cc1 | -5.4 |
| O=C(c1[nH]c(C(F)(F)F)nc1-c1ccccc1)N1CCC(C(O)(c2ccccc2)c2ccccc2)CC1 | -1.3 |
| C[C@@H]1CN([C@@H](C)CO)C(=O)c2cccc(NC(=O)NC3CCCCC3)c2O[C@@H]1CN(C)S(=O)(=O)c1ccc(F)cc1 | 1.7 |
| CCC(=O)N1[C@H](CO)[C@H](c2ccccc2)[C@@H]1CN(CC)C(=O)c1ccc(F)cc1 | -1.4 |
| COc1ccc(S(=O)(=O)Nc2ccc3c(c2)C(=O)N([C@H](C)CO)C[C@H](C)[C@H](CN(C)C(=O)Nc2c(C)noc2C)O3)cc1 | -2.5 |
| COc1ccc(S(=O)(=O)Nc2ccc3c(c2)C(=O)N([C@H](C)CO)C[C@@H](C)[C@@H](CN(C)C(=O)NC(C)C)OCCCC[C@@H](C)O3)cc1 | 3.3 |
| COC(=O)C[C@H]1C=C[C@H](NC(=O)c2ccccn2)[C@@H](CO)O1 | -9.6 |
| C[C@H](O)C#Cc1ccc([C@@H]2[C@H]3CN(CC4CCOCC4)CCCCN3[C@H]2CO)cc1 | 4.6 |
